FEN1 inh: human FEN1 inhibition. Recombinant FEN1 flap cleavage, fluorescence, 15 min. Potency, µM (series often up to 114 µM), inactives show at the highest dose activity change, negative = inhibition, hits mostly inhibitors. actives 0.35% (n = 390,000). P39748; further: nearly all actives have a fitted effect of over 65% in size
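Nuclease activity of 10 nM FEN1 was measured after 15 min of room-temperature exposure to titrated compounds, by adding 50 nM flap substrate and reading plates at 0 and 15 min.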
GCN5L2 inh: GCN5L2 (KAT2A) acetyltransferase inhibition; Q92830; GCN5L2 HAT assay, ThioGlo1 CoA-SH fluorescence; Potency, µM (titrated, usually from 58.9 µM), without a hit: at the highest dose activity change, negative = inhibition, hits mostly inhibitors; actives 0.21% (n = 390,000); AID 504327
Target sequence (Q92830 whole entry, looked up): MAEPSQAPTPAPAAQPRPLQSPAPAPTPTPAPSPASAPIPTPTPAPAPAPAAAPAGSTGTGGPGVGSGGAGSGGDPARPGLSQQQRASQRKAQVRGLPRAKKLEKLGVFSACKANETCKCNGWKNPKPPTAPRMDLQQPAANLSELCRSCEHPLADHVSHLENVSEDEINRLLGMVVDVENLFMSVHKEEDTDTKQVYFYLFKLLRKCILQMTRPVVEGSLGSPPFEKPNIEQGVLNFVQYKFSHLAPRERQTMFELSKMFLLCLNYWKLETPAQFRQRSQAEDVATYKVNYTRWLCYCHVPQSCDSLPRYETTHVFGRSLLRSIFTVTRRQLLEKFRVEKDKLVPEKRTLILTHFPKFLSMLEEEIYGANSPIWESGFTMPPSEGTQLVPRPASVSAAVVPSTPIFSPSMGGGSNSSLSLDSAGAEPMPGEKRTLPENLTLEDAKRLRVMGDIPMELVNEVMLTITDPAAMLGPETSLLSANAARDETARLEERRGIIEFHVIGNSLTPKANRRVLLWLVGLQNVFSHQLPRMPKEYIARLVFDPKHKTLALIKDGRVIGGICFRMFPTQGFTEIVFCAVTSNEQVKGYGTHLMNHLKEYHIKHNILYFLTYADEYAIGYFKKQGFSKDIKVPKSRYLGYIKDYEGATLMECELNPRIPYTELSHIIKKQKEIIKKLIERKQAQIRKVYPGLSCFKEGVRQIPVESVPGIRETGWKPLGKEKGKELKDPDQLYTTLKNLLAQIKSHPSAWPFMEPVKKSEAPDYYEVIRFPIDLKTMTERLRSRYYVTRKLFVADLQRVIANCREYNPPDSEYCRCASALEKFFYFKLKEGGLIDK
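Fluorescence readout, Ex340nm/Em540nm: ThioGlo1 (50uM final) reacts with free CoA thiol released as 20nM GCN5L2 acetylates H3(1-25) peptide (75uM) using acetyl-CoA (70uM). Compound and enzyme sat 15 min beforehand; 20 min room-temperature reaction.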
Numbers without * were called inactive; ? = inconclusive; . = no result given; & = joins results of further samples; ! = not confirmed by another sample; [ ] = remark or other dose. The call rests on the fitted dose curve; in most records, active means well fitted curve in the direction sought with a large enough effect; inconclusive means small, poorly fitted or top-dose-only effect, or another doubt; inactive means no such curve, though single readings can be large; an effect the other way counts as inactive or inconclusive. On the % scale 0 is the no-effect control and ±100 the full control effect; potency means the concentration at half of the fitted maximal effect. A portion of the library; most or all hits stand in other tables.

SMILES | FEN1 inh | GCN5L2 inh
C[N+]1(C)C2CC(OC(=O)C(CO)c3ccccc3)CC1C1OC12 (stereo not drawn) | 17% | -8%&-6%
C=CCc1ccc(OC)cc1 | 3% | 0%&7%
CN1C2CCC1C(C(=O)O)C(OC(=O)c1ccccc1)C2 (stereo not drawn) | ? | 0%&-9%
COc1ccc(C[C@H]2NC[C@H](O)[C@H]2OC(C)=O)cc1 | -3% | -9%
CCOC(=O)N(C)c1ccc(C(O)(C(=O)OC)C(F)(F)F)cc1 (stereo not drawn) | 2% | -2%
Cc1ccc2c(c1)CNc1ccccc1O2 | -9% | -2%
Cc1ccccc1-n1c(-c2ccoc2)nc2ccccc2c1=O | -4% | 0%
CC(=O)[C@]1(O)CCC2C3CCC4=CC(=O)CC[C@@]4(C)C3CC[C@]21C (stereo partly drawn) | . | 9%
Cc1sc2nc(COC(=O)Cc3ccccc3)[nH]c(=O)c2c1C | -13% | -4%[0.501 µM]
CN1CCC(c2c[nH]c3ccc(O)cc23)CC1 | 9% | 1%
N#Cc1c(Cl)cccc1Cl | . | -5%
CCCC(=O)NC(Oc1ccc(C(C)=O)cc1)C(Cl)(Cl)Cl (stereo not drawn) | -13% | -3%
NCCc1c[nH]c2ccc(O)cc12 | . | 14%
Cc1ccccc1-n1c(C)nc2ccccc2c1=O | -3% | -26%
C/C=C/CC#N | 21% | ?
Cn1c(=O)c2c(ncn2CCCl)n(C)c1=O | 22% | 0%
CC(=O)N1CN2CN(C1)CN(C(C)=O)C2 | -7% | -7%
O=C(O)c1nonc1-c1nonc1C(=O)O | 0% | -1%
CC(=O)N1CCN(c2ccc([N+](=O)[O-])cc2C=C2C(=O)NC(=O)NC2=O)CC1 | 1% | -1%
C[N+]12CCC(CC1)C(=C(c1ccccc1)c1ccccc1)C2 | -6% | -4%
COC(=O)CN1CN(c2ccccc2)C2(CCN(Cc3ccc4ccccc4c3)CC2)C1=O | . | -22%
O=C1/C(=C\c2ccncc2)N2CCC1CC2 | 1% | -4%
Fc1ccc(C2N3CCCN23)cc1 (stereo not drawn) | -4% | 1%
COc1ccc(CCNCc2ccc(OC)c(OC)c2OC)cc1 | 10% | -6%
O=C(Nc1cccc(OC(=O)N2CCOCC2)c1)N1CCOCC1 | 6% | -4%
COC(=O)C1=C(c2ccc(-c3ccccc3)c(F)c2)C[C@@H]2CC[C@H]1N2C(=O)NC1CCCCC1 | 12% | -23%
CC(C)=CCN1CC[C@@]2(C)c3cc(O)ccc3CC1C2C (stereo partly drawn) | -13% | 2%
Cc1ccc(-c2nc3ccccc3c(=O)n2-c2cccnc2)cc1 | 0% | -4%
Cc1ccc(-c2nc(N(C)C3CCN(C)CC3)c3ccccc3n2)cc1 | ? | -4%
Cc1nc2ccccc2c(=O)n1-c1ccc([N+](=O)[O-])cc1 | -4% | -7%
CCOP(=O)(OCC)c1cccc(O)c1 | -7% | -5%
CCCCOC(=O)c1ccccc1C(=O)OCCCC | -13% | -11%&-7%
COC(=O)C1=C(c2ccc(OC(F)(F)F)cc2)C[C@@H]2CC[C@H]1N2C(=O)NCCOc1ccccc1Cl | ? | -21%
O=C(Nc1ccc2c(c1)OCO2)c1cccn(Cc2ccccc2)c1=O | -1% | -8%
Cc1ccc2nc(NC(=O)c3cccn(Cc4ccccc4F)c3=O)sc2c1 | -2% | -1%
COc1cc2c(cc1OC)C(C)NCC2 (stereo not drawn) | 3% | 2%
O=[N+]([O-])c1cccc2c([N+](=O)[O-])cccc12 | 3% | ?
CCC(N)Cc1c[nH]c2ccccc12 (stereo not drawn) | -3% | 0%
Cc1c(C(=O)Nc2ccccc2)cc(-c2ccccc2)n1CCCN1CCOCC1 | 6% | -2%
Cc1ccc2c(c1)C1CN(C)CCC1N2C(=S)Nc1cccnc1 (stereo not drawn) | -3% | -3%
CCOP(=S)(OCC)Oc1cc(C)nc(C(C)C)n1 | -10% | -23%
CCOc1ccccc1-n1c(O)c(C=Nc2ccc(N(CC)CC)cc2)c(=O)[nH]c1=O | -12% | -9%
Cc1cccc(NC(=O)COC(=O)c2cc(C)n(C3CC3)c2C)c1 | 2% | -21%
O=[N+]([O-])c1ccc(Cl)cc1 | 19% | ?
CCNCCNc1ccc([N+](=O)[O-])c2cccnc12 | ? | -21%

Some of the entries so far, tab-delimited.
SMILES	FEN1 inh	GCN5L2 inh
Cc1cccc(NC(=O)COC(=O)c2cc(C)n(C3CC3)c2C)c1	2%	-21%
COC(=O)C1=C(c2ccc(OC(F)(F)F)cc2)C[C@@H]2CC[C@H]1N2C(=O)NCCOc1ccccc1Cl	?	-21%

The results go on:
SMILES | FEN1 inh | GCN5L2 inh
O=C(c1cc(S(=O)(=O)N2CCCCC2)ccc1F)N1CCC2(CC1)OCCO2 | 7% | 1%
CC1(C(=O)O)CCCC2(C)c3cc(O)ccc3CCC12 (stereo not drawn) | 2% | .
Cc1cc(OC(C)C(=O)NCC(O)c2ccccc2)c2c3c(c(=O)oc2c1)CCC3 (stereo not drawn) | -23% | -8%
COc1ccc2[nH]c3c(c2c1)CCNC3 | -8% | ?
Cc1nc2c(-c3ccccc3)c(C)nn2c(C)c1CCC(=O)N1CCC2(CC1)OCCO2 | -7% | 4%
c1ccc2c(c1)Sc1ccccc1N2CC1CN2CCC1CC2 (stereo not drawn) | 14% | -5%
O=P(Nc1cccc(Cl)c1)(Oc1ccccc1)Oc1ccccc1 | ? | -11%
CCN(CC)S(=O)(=O)c1cccc(N=Nc2c(O)n(CC)c(=S)n(CC)c2=O)c1 | 4% | -8%
Nc1nonc1OCCCCOc1nonc1N | 1% | -7%
CSc1ccc(C(=O)C2CCCN(Cc3cnc(SC)nc3)C2)cc1 (stereo not drawn) | 4% | -3%
COc1nc(C)nc(NC(=O)NS(=O)(=O)c2ccccc2Cl)n1 | -6% | .
BrCC(Br)(Br)Br | -16% | -6%
Cc1ncc([N+](=O)[O-])n1CCOc1nonc1N | -2% | -5%
O=C(c1ccncc1)C12CN3CN(CN(C3)C1)C2 | -1% | -5%
O=C(CSc1ccccc1)N1CCC2(CC1)OCCO2 | 8% | -2%
C[C@]12C=CC(=O)C=C1CC[C@@H]1[C@@H]2CC[C@]2(C)C(=O)CC[C@@H]12 | -5% | .
Cc1ccc2cc3cc(C(=O)N4CCC5(CC4)OCCO5)oc3nc2c1 | 0% | ?
CN1c2ccccc2Oc2ccccc21 | -5% | -2%
CC(=O)OC1N=C(c2ccc(Cl)cc2)c2cc(Br)ccc2NC1=O (stereo not drawn) | -21% | -10%
O=C1N(c2nncs2)CCN1[N+](=O)[O-] | 12% | 3%
CC1=C(C(=O)OC(C)C)[C@]2(C(=O)N(CC(N)=O)c3ccccc32)C(C#N)=C(N)O1 | 1% | 0%
CCn1c(O)c(/C(C)=N/N2CCCCC2c2cccnc2)c(=O)[nH]c1=S (stereo not drawn) | -6% | -3%
NCCCN1CCN(c2ccccc2)CC1 | 3% | -7%
CN1CC[C@@H]2CN3CCc4cccc(c43)[C@@H]2C1 | . | -4%
CCCCCCCCCCCCCCCC[N+](C)(C)C | -1% | -5%&8%&12%
CCc1cccc2c(C#N)cn(CC(=O)N3CCOCC3)c12 | -2% | -9%
Cc1ccsc1C(=O)C1CCCN(Cc2cccc(-n3cccn3)c2)C1 (stereo not drawn) | -12% | -9%
COC(=O)C(c1ccccc1)C1CCCCN1 (stereo not drawn) | . | ?
Cn1c(C(=O)N2CCC(C(=O)N3CCC4(CC3)OCCO4)CC2)cc2sccc21 | 2% | -6%[0.501 µM]
CCN(CC)Cc1cc(Nc2ccnc3cc(Cl)ccc23)ccc1O | 1%&0% | -7%
CC(C)CC(C)N (stereo not drawn) | -5% | -6%
COC(=O)C1=C(c2cccc(OCc3ccccc3)c2)C[C@@H]2CC[C@H]1N2C(=O)NCc1ccc(C(F)(F)F)cc1 | 3% | -12%
COC(=O)C1=C(c2ccc(OC(F)(F)F)cc2)C[C@@H]2CC[C@H]1N2C(=O)NCC1CC1 | -7% | 1%
COC1(CS(=O)c2ccccc2)CCN(CCc2c[nH]c3ccc(F)cc23)CC1 (stereo not drawn) | . | -11%
O=C(c1ccc2c(c1)OCO2)N1CCC2(CC1)OCCO2 | 2% | -12%
CCc1ccc(OCC(=O)N2CCN(CCc3ccncc3)CC2)cc1 | 15% | 0%
COC(=O)C1=C(c2c(C)noc2C)C[C@@H]2CC[C@H]1N2C(=O)N1CCC(O)CC1 | 22% | 4%
O=C1/C(=C/c2ccncc2)N2CCC1CC2 | 20% | 2%
COc1ccc(C)cc1NC(=O)c1cccn(Cc2cccc([N+](=O)[O-])c2)c1=O | 9% | 4%
C[N+]1=C(/C=C/Nc2ccccc2)C(C)(C)c2ccccc21 | -11% | 43%[activator]
CC(C)(C)n1cc(C(=O)c2ccc3ccccc3c2O)cn1 | -1% | -9%
CP(C)(=O)CCC(=O)O | -1% | -16%
COc1nc(NC(C)C)nc(NC(C)C)n1 | -2% | 6%&3%
Cc1ccc(-n2c(/C=C/c3cc(Br)cs3)nc3ccccc3c2=O)cc1 | -20% | -2%
CN1CCC23c4c5ccc(O)c4O[C@@H]2[C@H](O)C=CC3C1C5 (stereo partly drawn) | -9% | -2%
CC(=O)Oc1ccccc1C(=O)Nc1ncc([N+](=O)[O-])s1 | . | ?
Cc1cc(OCC(=O)N2CCN(CCc3ccccn3)CC2)cc(C)c1Cl | -1% | -3%
CCOC(=O)C1=C(C)N(C)C2(C)CC1c1ccccc1O2 (stereo not drawn) | -2% | -9%
Cc1ccc(OCC(=O)N2CCN(Cc3ccc([N+](=O)[O-])cc3)CC2)cc1 | -11% | -14%
CNCC[C@H](Oc1ccc(C(F)(F)F)cc1)c1ccccc1 | 10% | 8.9µM*!
Cc1ccc(CN2CC3CC(C2)c2cccc(=O)n2C3)cc1 (stereo not drawn) | -12% | -12%
COC(=O)C1=C(c2c(C)noc2C)C[C@@H]2CC[C@H]1N2C(=O)N1CCC(C)CC1 | 19% | 0%
CCc1ccc(CNCCc2ccccc2F)cc1 | 1% | -4%
C[N+]1(C)CCN(c2ccccc2)CC1 | ? | ?
Nc1ccc(Cc2ccc(N)c(Cl)c2)cc1Cl | 7% | .
O=C(O)C1C(C(=O)O)C2(Cl)C(Cl)=C(Cl)C1(Cl)C2(Cl)Cl (stereo not drawn) | 7% | -22%
O=[N+]([O-])c1cc(F)c(N2CCCC2)cc1Br | -13% | 3%
O=[N+]([O-])c1c2ccccc2cc2ccccc12 | -20% | -16%
CCCCC12CN3CC(C)(CN(C1)C3c1ccccn1)C2=O (stereo not drawn) | 2% | 1%
CC(C)OC(=O)Cc1ccccc1 | -21% | -8%
(listing goes on)
SMILES | FEN1 inh | GCN5L2 inh
O=C(COc1cc(Cl)ccc1Cl)Nc1ccc(Cl)cc1C(=O)c1ccccc1 | -2% | -2%
c1cncc(C2=NCCC2)c1 | . | -2%[21.4 µM]
Nc1nc(N)nc(NC2CC2)n1 | . | 11%
CC1(O)CCN2C(=O)CCc3cccc1c32 (stereo not drawn) | 14% | -10%
C=CC[N+]1(C)C2CCC1CC(O)C2 (stereo not drawn) | 3% | -1%
NCCCC[C@H](N[C@@H](CCc1ccccc1)C(=O)O)C(=O)N1CCC[C@H]1C(=O)O | 5%&0% | ?
CC1CC(C)CN(CC(=O)c2ccc(OC(F)F)cc2)C1 (stereo not drawn) | 6% | -8%
COC(=O)C1=C(c2ccc(Cl)c(C(F)(F)F)c2)C[C@@H]2CC[C@H]1N2C(=O)NCc1ccc2c(c1)OCO2 | -12% | -6%
Cc1c(N=Cc2c(O)n(CCc3ccccc3)c(=O)[nH]c2=O)c(=O)n(-c2ccccc2)n1C | 3% | -5%
O=C1C2CCN(CC2)C1Cc1ccc(OCc2ccccc2)cc1 (stereo not drawn) | 37%[activator] | -8%
Cc1occc1C(=O)N1CCC2(CC1)OCCO2 | -16% | -3%
O=C(NCNC(=O)NC1C(=O)NC(=O)N1CO)NC1C(=O)NC(=O)N1CO (stereo not drawn) | 7% | -5%&0%
NCCc1ccc(O)cc1 | 12% | -1%&-4%
O=C1c2ccccc2C(=O)N1Cc1nc2ccccc2c(=O)n1-c1cccnc1 | 32% | -5%
Cc1ccc2c(c1)C1C[N+](C)(CC(=O)c3ccc(Cl)cc3Cl)CCC1N2C(=O)c1ccc(F)cc1 (stereo not drawn) | 1% | ?

Random excerpt: five compounds from above
SMILES | FEN1 inh | GCN5L2 inh
O=C1c2ccccc2C(=O)N1Cc1nc2ccccc2c(=O)n1-c1cccnc1 | 32% | -5%
NCCCC[C@H](N[C@@H](CCc1ccccc1)C(=O)O)C(=O)N1CCC[C@H]1C(=O)O | 5%&0% | ?
CC1CC(C)CN(CC(=O)c2ccc(OC(F)F)cc2)C1 (stereo not drawn) | 6% | -8%
Cc1ccc2c(c1)C1C[N+](C)(CC(=O)c3ccc(Cl)cc3Cl)CCC1N2C(=O)c1ccc(F)cc1 (stereo not drawn) | 1% | ?
Cc1occc1C(=O)N1CCC2(CC1)OCCO2 | -16% | -3%

The listing continues:
SMILES | FEN1 inh | GCN5L2 inh
CC(C)(C)N1Cc2ccccc2C1=N | 11% | 11%
C[C@]12CC[C@@H](O)CC1=CCC1C2CC[C@@]2(C)C1C[C@@H](F)[C@@H]2O (stereo partly drawn) | -11% | -1%
Nc1ccc([N+](=O)[O-])cc1 | -1% | ?
CCC(C(=O)N1CCC2(CC1)OCCO2)n1c2ccccc2c2nc(=O)cc(C)n21 (stereo not drawn) | 16% | 0%
Cc1ccc(S(=O)(=O)N2CC2(C)CCl)cc1 (stereo not drawn) | 14% | -5%
